Screens deposited in PubChem BioAssay by National Center for Advancing Translational Sciences (NCATS).
HSD17B inh: inhibitors of human HSD17B10 dehydrogenase | Q99714 | recombinant HSD17B10, NADH fluorescence kinetic; many of its hits are not listed in these tables | Potency, µM (highest dose often 57.1 µM), for the others: at the highest dose activity change, negative = inhibition, actives largely listed as inhibitors | 7.6% of 75,000 active | AID 893; active means well fitted inhibition curve with a large enough effect; inconclusive means small, poorly fitted or top-dose-only effect; inactive means no such curve, though single readings can be large or run the other way;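 further: the protocol describes HADH2 (HSD17B10) and not the HSD17B4 of the title; nearly all actives have a fitted effect of over 70% in size; most hits overshoot -100% by far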
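20 nM HADH2, pH 9.0 Tris/Tween; cpd preinc 15 min RT; start w/ 1 mM NAD+ + 90 uM b-hydroxybutyryl-CoA; kinetic fluor ex360/em450 q30s x 4 min; delta last-first.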
An asterisk follows results filed as active; ? = inconclusive; & = joins results of further samples; [ ] = dose if it differs, or a comment. On the % scale 0 is the no-effect control and ±100 the full control effect; potency means the concentration at half of the fitted maximal effect.

mol	HSD17B inh
O=C1C[C@@H](O)[C@@H](O)[C@H]2[C@@H]3C(=O)N(Cc4ccccc4)C(=O)[C@@H]3CC[C@H]12	-0.7%&3.5%[11.4 µM]
N#Cc1ccccc1CSc1ccccn1	1.2%
CCC(C)(C)n1nnnc1C(C(C)C)N(CCCO)Cc1cc2cc(C)ccc2[nH]c1=O (stereo unspecified)	-8.5%
CC1CCN(C(=O)N[C@@H](Cc2ccccc2)C(=O)O)CC1	18.7%
C[C@H](N)[C@H](O)c1cccc(O)c1	0.3%[25.6 µM]
Cc1ccc(S(=O)(=O)c2nc(N3CCOCC3)sc2Cl)cc1	-7.5%
CN(C(=O)c1cccnc1)c1nnc(-c2cnccn2)s1	110.0%[activator]
CCN=C1SC(CC(=O)Nc2ccc(C)cc2)C(=O)N1CC (stereo unspecified)	10.2%
O=C(Nc1ccc(S(=O)(=O)N2CCCc3ccccc32)cc1)C1CCCO1 (stereo unspecified)	1.9%
CCCCN1C(=O)C2ON(c3ccccc3C)C(c3ccco3)C2C1=O (stereo unspecified)	-15.7%
Cc1nc2ccccc2nc1N1CCCCC1	6.4%
O=C1CCC=C1[C@@H](O)CCc1ccccc1	2.8%[11.4 µM]
COC(=O)c1cc(Br)c(=O)n(CCc2ccccc2)c1	-0.7%
COC(=O)c1ccccc1NC(=O)c1cc2ncc(Br)cn2n1	-13.4%
COc1cccc(OCCOc2cccc(/C=N/n3cnnc3)c2)c1	-0.3%
Cc1cc(C(=O)NC2CCCc3ccccc32)no1 (stereo unspecified)	5.6%
COc1ccccc1N(C(=O)Cn1nnc2ccccc21)C(C(=O)NCc1ccco1)c1ccc(C)o1 (stereo unspecified)	-3.7%
CN(CC(=O)O)Cc1c(O)c(Cl)cc(Cl)c1Cl	5.9%[11.4 µM]
O=C(CN1C2=NCCCN2c2ccccc21)c1cccs1	-3.5%
CC(C)OC(=O)c1nnn(-c2nonc2N)c1CN1CCCCCC1	-8.6%
Nc1ccc(-c2ccc(N)cc2C(F)(F)F)c(C(F)(F)F)c1	5.9%
COCCn1c(=O)c(-c2cccc(C#N)c2)nc2cnc(OC)nc21	?
Cc1nn2c(N)csc2nc1=O	-14.3%
COC(=O)c1cc(C(=O)OC)n(Cc2ccc(F)cc2)n1	-0.6%
Cc1ccc(C)n1-n1cnc2sc3c(c2c1=O)CCC3	-7.5%
Cc1c(C(=O)N2CCN(CCc3ccccc3)CC2)oc2ccccc12	-5.8%
CCCCNC(=O)c1sc2nc(C)cc(COC)c2c1-n1cccc1	-6.3%
CCOC(=O)Nc1c(C(=O)OC)[nH]c2cccc(OC)c12	31.6µM*
O=C1CC(c2ccc(O)cc2)Oc2cc(O)cc(O)c21 (stereo unspecified)	-24.8%&-9.8%
CO[C@]1(NC(=O)C2SC(=C(C(N)=O)C(=O)O)S2)C(=O)N2C(C(=O)O)=C(CSc3nnnn3C)CS[C@H]21 (stereo partly specified)	5.0%[25.6 µM]
Cc1[nH]nc2c1-c1nc3ccccc3nc1C(C)(C)C2	25.1µM*
COC(=O)[C@@H]1C[C@@H]2CC[C@@H](O)C[C@@H]2N1Cc1ccccc1OS(=O)(=O)c1ccc(C)cc1	4.0%
CCC(=O)Oc1cccc(C(=O)Nc2ccc(-c3nnc(-c4ccco4)o3)cc2)c1	20µM*
Nc1ccc(SCCN2C(=O)c3ccccc3C2=O)cc1	-2.3%
CC(C)CNC(=O)CSc1nnc(-c2ccccn2)n1Cc1ccccc1	4.8%
c1cc(-c2nnc3n2CCCCC3)ccn1	9.4%
CCS(=O)(=O)CCSc1nc2ccccc2s1	0.0%
Cc1c(O)c(=O)n(-c2ccccc2)n1C	-1.3%[25.6 µM]
Cc1ccccc1-n1c(=O)cc(N2CCc3ccccc3C2)[nH]c1=O	-1.7%
Cn1c(=O)c(-c2ccc(Cl)cc2)nc2cncnc21	2.2%
NC(=O)CN1CCN(C(=O)Nc2ccccc2)CC1	-0.5%
Cc1noc(C)c1COC(=O)c1ccccc1Sc1ccccc1C#N	-1.7%
NC(=O)c1c(NC(NC(=O)c2ccco2)(C(F)(F)F)C(F)(F)F)sc2c1CCCC2	?
NCC1O[C@@H](OC2C(N)C[C@H](N)[C@@H](O[C@H]3OC(CO)C(O)C(N)C3O)C2O)C(N)C(O)C1O (stereo partly specified)	2.0%
CC(C)CC(=O)Nc1ccccc1-c1nnn(CC(=O)N2CCOCC2)n1	11.6%
Cc1ccccc1N=C1Nc2ccccc2CS1	3.4%
CS(=O)(=O)N1CCN(c2nc(-c3ccc(F)cc3)cs2)CC1	0.1%
CC(C)Oc1cccc(C(=O)O)c1	21.5%
COc1ccccc1N1CCN(C(=O)C(F)F)CC1	10.0%
N#Cc1ccsc1NC(=O)CSc1ncn[nH]1	8.0%

(list continues)
mol	HSD17B inh
CC(=O)C(C)Oc1cc(C)cc2oc(=O)c(C)c(C)c12 (stereo unspecified)	10µM*
O=C(NCc1cccs1)C1CCN(S(=O)(=O)c2cccs2)CC1	0.8%
C#CC(C)(CC)NC(=O)Cn1nnc(-c2ccc(S(C)(=O)=O)cc2)n1 (stereo unspecified)	6.5%
Cc1cc(NC(=O)Nc2cc(C)nn2-c2ccccc2)n(-c2ccccc2)n1	7.6%
C=CCc1ccccc1OCC(O)CNC(C)C (stereo unspecified)	7.6%
CC(C)(C)c1ccccc1NC(=O)c1cccnc1	4.0%
CCC(c1nnnn1Cc1ccco1)N(CCc1ccccc1)Cc1cc2cc(C)ccc2[nH]c1=O (stereo unspecified)	31.6µM*
O=C(CSc1ccc2nnc(-c3ccccn3)n2n1)NCc1ccco1	8.0%
O=C(c1noc2c1CCCC2)N1CCOCC1	9.8%
O=c1oc2ccccc2cc1O	-3.5%
O=C(CC1CCS(=O)(=O)C1)Nc1ccc[nH]c1=O (stereo unspecified)	25.1µM*
COC(=O)c1cccc(NC(=O)CSc2nnc(C)n2Cc2ccccc2)c1	-0.9%
Cc1ccc(-c2noc(CN(C(=O)CCCCCN3C(=O)c4ccccc4C3=O)C(C)C)n2)cc1	2.5%
CCOc1cc(-c2cc(N)n[nH]2)cc(OCC)c1OCC	?
CC(C)=CCC(C)(C)C1OCCN1C(=O)Nc1ccccc1 (stereo unspecified)	-0.3%
Brc1ccc2[nH]c3nc(SCCN4CCOCC4)nnc3c2c1	-0.2%
NC(=S)SCCC(=O)O	-6.9%[11.4 µM]
COc1c(C(C)C)oc2cc3oc(=O)ccc3cc12	92.0%[activator]
O=c1[nH]c(C(F)(F)F)nc2c1nnn2Cc1ccccc1F	-12.0%
CCOCCCNC(=O)c1cn(C)c2ccc(S(=O)(=O)N(C)C3CCCCC3)cc2c1=O	-9.2%
Cc1ccc(C)c(-c2nc3cc(N)ccc3o2)c1	?
Cn1cccc1-c1nc2ccccc2n1Cc1ccccc1	25.1µM*
O=C(NCCc1ccccc1)c1cc(-c2ccco2)on1	2.9%
CC(=O)Nc1nc2ccc(Br)cc2s1	4.7%
CC(=O)Oc1ccc(N2C(=O)CC(N3CCOCC3)C2=O)cc1 (stereo unspecified)	-14.7%

In another format: four of the compounds above.
Structure: COC(=O)c1cccc(NC(=O)CSc2nnc(C)n2Cc2ccccc2)c1
  HSD17B inh: -0.9%
Structure: O=C(CSc1ccc2nnc(-c3ccccn3)n2n1)NCc1ccco1
  HSD17B inh: 8.0%
Structure: NC(=S)SCCC(=O)O
  HSD17B inh: -6.9%[11.4 µM]
Structure: O=c1[nH]c(C(F)(F)F)nc2c1nnn2Cc1ccccc1F
  HSD17B inh: -12.0%

The list continues:
| structure | HSD17B inh |
| --- | --- |
| COc1ccc(-n2c(Cc3cccn3C)nnc2SCC(=O)NC2CCCCC2)cc1 | 1.4% |
| CCN(C(=O)CN1CCN(c2ccc(OC)cc2)CC1)c1c(N)n(Cc2ccccc2)c(=O)[nH]c1=O | 0.2% |
| CC1=C(C(=O)OCc2ccccc2)C(c2ccc3ccccc3c2)NC(=O)N1CCCCCC(=O)O (stereo unspecified) | -17.1% |
| O=C1OCCC1Sc1nc2ccccc2s1 (stereo unspecified) | 5.3% |
| Nc1cc(Br)c(N)c(Br)c1 | 1.8% |
| CC(C)CC(=O)N1CCN(S(C)(=O)=O)CC1 | 7.0% |
| CC(NS(=O)(=O)c1ccccc1)C(=O)Nc1ccc(S(N)(=O)=O)cc1 (stereo unspecified) | -24.8% |
| CCCc1cc(=O)oc2cc(C)c(CN3CCCC3)c(O)c12 | 15.8µM* |
| CC1(C)CC(=O)C2=C(C1)NC(=O)CC2c1ccc(N(CCC#N)CCC#N)cc1 (stereo unspecified) | 10.6% |
| COc1ccccc1N1CCN(Cc2ccc(OC)c(OC)c2OC)CC1 | -3.3% |
| COc1cccc(Nc2ncc3nc(-c4cccs4)c(=O)n(CCC#N)c3n2)c1 | -0.8% |
| COc1ccc(C(=O)NCC(=O)Nc2ccccc2)cc1OC | 0.4% |
| CCn1c(=O)c2c(nc3n2CCCN3CCc2ccccc2)n(C)c1=O | -1.3% |
| CCOC(=O)Nc1nc(C)c(C(=O)N(C)C)s1 | 1.9% |
| COc1ccc2c(c1OC)C(Cc1ccccc1)N1CCc3cc4c(cc3C1C2)OCO4 (stereo unspecified) | -8.8% |

Shown field by field: 3 of the compounds above
> CC(C)CC(=O)N1CCN(S(C)(=O)=O)CC1
  HSD17B inh = 7.0%

> CC(NS(=O)(=O)c1ccccc1)C(=O)Nc1ccc(S(N)(=O)=O)cc1 (stereo unspecified)
  HSD17B inh = -24.8%

> CCCc1cc(=O)oc2cc(C)c(CN3CCCC3)c(O)c12
  HSD17B inh = 15.8µM*

Remaining list, next part:
| structure | HSD17B inh |
| --- | --- |
| COc1ccc(Br)cc1C1CC(=O)N2CN(C)CSC2=C1C#N (stereo unspecified) | ? |
| Cc1nc2ccccc2c(=O)n1NCc1cccs1 | -4.2% |
| CCc1nc2oc(C(=O)c3ccccc3)c(N)c2c2c1COC(C)(C)C2 | -4.5% |
| Cc1cc(C(=O)COC(=O)CN(C)S(=O)(=O)c2ccc(Cl)cc2)c(C)n1Cc1cccs1 | 2.1% |
| COc1ccc(Cl)cc1NC(=O)N1CCN(C2CCCCC2)CC1 | 8.3% |
| O=C(c1ccc(N2CCCC2=O)cc1)N1CCOCC1 | -3.3% |
| C[C@@]12CCC3c4ccc(OC5C=CC(c6ccccc6)OC5CO)cc4CCC3C1CCC2=O (stereo partly specified) | 5.5%[11.4 µM] |
| O=c1ccn(Cc2ccccc2Cl)cc1 | 0.8% |
| COc1ccc(OC)c(C(c2nnnn2CC2CCCO2)N2CCN(C)CC2)c1 (stereo unspecified) | 9.8% |
| Cn1c(=O)[nH]c(=O)c2c1nc(Br)n2CCSc1nc2ccccc2o1 | 6.0% |
| CCn1c(SCC(=O)NCc2ccc3c(c2)OCO3)nnc1-c1cccs1 | -0.5% |
| O=C(Nc1cccc(F)c1)N1CC[C@@]2(CCCN(C(=O)c3ccncc3)C2)C1 | -0.1% |
| O=c1c2[nH]c3ccccc3c2ncn1Cc1cccnc1 | -20.9% |
| O=S1(=O)OC(c2ccc(O)cc2)(c2ccc(O)cc2)c2ccccc21 | 0.8%[11.4 µM] |
| Cc1ccc(NC(=O)COc2ccc3oc4c(c3c2)CCCC4)nc1 | 5.3% |
| CCSC1=C(C#N)C(c2ccc(OC)c(OC)c2)CC(=O)N1 (stereo unspecified) | -0.9% |
| Cc1cccc(C)c1NC(=O)Cn1c(=O)n(CCCC(=O)NCc2ccco2)c(=O)c2sccc21 | -1.5% |
| Cn1c(Cc2ccccc2)nnc1SCC(=O)NC1CCCCC1 | 6.0% |
| N#Cc1nc(-c2ccc(OCc3ccc(Cl)cc3)cc2)oc1N1CCC(C(N)=O)CC1 | ? |
| COc1cccc(OC)c1C(=O)Nc1ccccc1N1CCCC1 | 8.5% |
| O=C1c2ccccc2S(=O)(=O)N1CC(O)Cn1ccc2ccccc21 (stereo unspecified) | 6.9% |
| CCOC(=O)C(C)On1c(SC(C)C(=O)OCC)nc2ccccc2c1=O (stereo unspecified) | 10.4% |
| CCN1C(=O)c2c(C)nc3ccccc3c2C1=O | 6.0% |
| C[N+](C)(C)CC[N+]1(C)Cc2c(Cl)c(Cl)c(Cl)c(Cl)c2C1 | -2.9% |
| COc1ccc2c(c1OC)C(=O)NC(C)=C(C(=O)OC(C)(C)C)C2O (stereo unspecified) | ? |
| Cc1sc2nc(CN3CCOCC3)nc(N3CCC(C(N)=O)CC3)c2c1C | 2.0% |
| COC(=O)[C@@]1(Cc2ccccc2)[C@H]2c3cc(C(=O)N(C)C)n(Cc4nc5ccccc5[nH]4)c3C[C@H]2CN1C(=O)c1ccccc1 | ? |
| COc1ccccc1NC(=O)C1C2C=CC3(CN(Cc4cccnc4)C(=O)C13)O2 (stereo unspecified) | 4.3% |
| COc1cc(NC(=O)CN2C(=O)c3ccccc3S2(=O)=O)c(OC)cc1Cl | 2.5% |
| Cc1occc1-c1nnc(SCC(=O)N2CC(=O)Nc3ccccc32)n1CC(C)C | -2.1% |
| Cc1ccc2c(c1)c(C)cc(=O)n2CCC(=O)O | ? |
| CN1CCN(c2ncncc2-c2cccnc2)CC1 | -0.2% |
| COc1ccccc1-c1nc(N(C)Cc2ccco2)c2ccccc2n1 | -4.9% |
| COC(=O)c1ccc(C(NC(=O)OCc2ccccc2)/C(=C/[C@@H](C)C(=O)NCc2cc(C)on2)c2cccnc2)cc1 (stereo partly specified) | 15.3% |
| CCOc1ccc(-c2nc(C#N)c(N3CCCCCC3)o2)cc1 | 31.6µM* |
| Cc1[nH]c2ccccc2c1-c1cc(-c2cc(-c3c(C)[nH]c4ccccc34)nc(N)n2)nc(N)n1 | 2.6%[11.4 µM] |

Some of the compounds tested. The share of hits here may be higher or lower than overall.
